Screens from PubChem.
D2 potentiator – human D2 receptor positive allosteric modulation. P14416. DiscoveRx D2 beta-arrestin cells, luminescence, 90 min; 100% = 57 uM dopamine signal. potentiation, % (test concentration not listed). hit rate 0.23% among 360,000; active = potentiation of 50% or more; inconclusive = 30% to 50%; inactive = 30% or less;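 also: compound concentration not given in the record; tested on top of an EC20 dose of dopamine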
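PathHunter D2 cells, attached overnight at 37 deg C, received compound in DMSO plus dopamine at EC20 (50 nM final) for 90 min at 37 deg C. Beta-arrestin recruitment was read as luminescence after 1 h with detection reagent at ambient temperature.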
TRPV1 potentiator – potentiators of human vanilloid receptor 1 (TRPV1) | AID 540277 | hit rate 0.02% among 320,000 | TRPV1-expressing cells, Fluo-8 calcium influx, capsaicin EC20 potentiation; host cell line not named in the record; control for the full effect not named in the record | potentiation, % at 8.33 µM | Q8NER1; active means potentiation above 80%; inconclusive means 30% to 80%; inactive means below 30%; also: 0% is about no effect
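Fluo-8 calcium influx in TRPV1-expressing cells, kinetic read (ex 480/em 520 nm). Compound added and read 3 min for agonist activity, followed by capsaicin at EC20 final and 2 min further read for enhancement.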
CtBP-E1A inh – inhibitors of CtBP/E1A interaction | AlphaScreen GST-E1A/His-CtBP binding, 1536-well; hits give low values; control for the full effect not named in the record | activity change, % (no concentration beside the values) | hit rate 0.49% among 340,000 | AID 651724; in the data active means activity change below about -65%; inconclusive means about -30% to -65%; inactive means above about -30%; also: % is scaled to controls: 0 for no effect and ±100 for the full control effect; compound concentration not given in the record
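In 5 uL wells, 23 nL compound meets equimolar GST-E1A and His-CtBP (5X stock 125 nM each) for 2 h, 37 °C. Beads (5X, 50 ug/mL) then 1 h, 37 °C, dark.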
PINK1 expr mod – changes PINK1 expression; PINK1 immunofluorescence, high-content cytometry, 24 h; Potency, µM (top dose mostly 76.6 µM), for inactives: at the top dose activation (PINK1 increase), usual class: activators; hit rate 0.2% among 410,000; active = well fitted activation curve with a large enough effect; inconclusive = small, poorly fitted or top-dose-only effect; inactive = flat fitted curve, though single readings scatter; cell line not stated here;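 also: potency is read from the fitted curve at half-maximal effect; % of control where 0% means no effect; nearly all actives have a fitted effect of over 65% in size; a mitochondrial uncoupler was the plate control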
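PINK1 protein, normally rapidly degraded, was detected by immunofluorescence after 24 hour compound treatment of a stable cell line. Titration data (5 concentrations) came from laser-scanning cytometry, with CCCP-treated wells as controls.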
Six1-Eya2 blk – inhibitors of human Six1/Eya2 interaction; Q15475+O00167; AlphaScreen GST-Six1/His-Eya2 binding, biochemical; hits give low values; control for the full effect not named in the record; activity change, % (test concentration not listed); hit rate 0.56% among 360,000; AID 651725; in the data active = activity change below about -65%; inconclusive = about -30% to -65%; inactive = above about -30%; also: % is scaled to controls: 0 for no effect and ±100 for the full control effect; compound concentration not given in the record
Target sequence (O00167 whole entry, looked up): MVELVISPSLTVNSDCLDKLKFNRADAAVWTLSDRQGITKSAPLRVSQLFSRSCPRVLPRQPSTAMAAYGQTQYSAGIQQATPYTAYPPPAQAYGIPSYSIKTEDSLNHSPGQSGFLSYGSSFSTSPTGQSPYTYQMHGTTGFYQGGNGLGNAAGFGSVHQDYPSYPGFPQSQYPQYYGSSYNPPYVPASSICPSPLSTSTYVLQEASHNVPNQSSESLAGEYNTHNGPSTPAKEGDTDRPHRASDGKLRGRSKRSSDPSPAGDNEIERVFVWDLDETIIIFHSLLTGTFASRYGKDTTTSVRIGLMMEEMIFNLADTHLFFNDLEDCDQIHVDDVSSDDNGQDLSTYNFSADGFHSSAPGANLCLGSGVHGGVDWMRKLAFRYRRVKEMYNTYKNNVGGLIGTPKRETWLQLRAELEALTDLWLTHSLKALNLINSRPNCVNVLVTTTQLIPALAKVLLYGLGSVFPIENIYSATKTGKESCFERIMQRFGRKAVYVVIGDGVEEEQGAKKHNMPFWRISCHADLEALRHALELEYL
Target sequence (Q15475 whole entry, looked up): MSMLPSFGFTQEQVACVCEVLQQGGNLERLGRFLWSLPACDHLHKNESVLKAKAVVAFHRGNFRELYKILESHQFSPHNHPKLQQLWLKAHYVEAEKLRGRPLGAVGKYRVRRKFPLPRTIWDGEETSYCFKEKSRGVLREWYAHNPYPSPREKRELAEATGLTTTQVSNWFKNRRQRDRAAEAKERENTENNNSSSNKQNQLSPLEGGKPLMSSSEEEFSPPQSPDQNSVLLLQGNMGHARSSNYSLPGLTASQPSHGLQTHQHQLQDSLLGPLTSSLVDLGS
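Compounds are tested against tagged Six1 and Eya2 proteins bridged by glutathione donor and nickel acceptor beads; after a one-hour incubation at 37 °C without light, AlphaScreen emission is recorded.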
Sfp inh – blocks B. subtilis Sfp PPTase activity. Biochemical Sfp PPTase activity, qHTS. Potency, µM, for the others: max response, negative = inhibition, actives largely listed as inhibitors. hit rate 3.5% among 310,000. AID 1490; active = well fitted inhibition curve with a large enough effect; inconclusive = small, poorly fitted or top-dose-only effect, or another doubt; inactive = no such curve, though single readings can be large or run the other way;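 also: the enzyme is Sfp with the accession as filed and its product quenches rhodamine fluorescence; potency is read from the fitted curve at half-maximal effect; 0% = enzyme reaction without inhibitor and -100% = no enzyme wells; top concentration of the series not given in the record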
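Buffer: 50 mM Hepes-Na pH 7.6, 10 mM MgCl2, 0.01% Nonidet P-40, 0.01% BSA. Enzyme 15 nM, pre-exposed to compound 15 min; substrates then added and fluorescence change tracked over 30 min.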
D2 agonist – human D2 receptor agonism in beta-arrestin assay. DiscoveRx PathHunter D2 beta-arrestin, luminescence, 90 min; 100% = 57 uM dopamine signal. activation, % (concentration not given with the values). hit rate 0.084% among 360,000. AID 624465; in the data active = activation above about 40%; inconclusive = about 15% to 40%; inactive = below about 15%; also: compound concentration not given in the record; the text of the record calls up to 30% inactive
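DiscoveRx PathHunter D2 beta-arrestin cells (2,100/well) attached overnight, then compound-stimulated 90 min at 37 C in HBSS/10 mM HEPES/0.1% Tween-20 buffer; beta-galactosidase complementation read by luminescence after 1 h at ambient temperature. Dopamine 57 uM final (EC100) as control.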
Starred values were filed as active, the others as inactive; ? = inconclusive; nt = not tested or not shown; & = joins results of further samples; [ ] = dose if it differs, or a comment.

SMILES	D2 potentiator	TRPV1 potentiator	CtBP-E1A inh	PINK1 expr mod	Six1-Eya2 blk	Sfp inh	D2 agonist
Cc1ccc(NC(=S)N2CCSC2c2cccs2)cc1 (stereo unspecified)	-19	-3	-17	-0.5%	9	8%	-1.1
Cc1ccc(C(=O)Nc2nccs2)cc1S(=O)(=O)N1CCCCC1	-3	-20	-23	-0.2%	-23	8%	-3.8
Cc1ccc(/C=N/NC(=O)c2cc(C3CC3)nc3ccccc23)o1	-6	3	0	7.5%	-10	50µM*	-0.3
COc1ccc(Oc2cc(NN3CCCCC3)c([N+](=O)[O-])cc2[N+](=O)[O-])cc1OC	-2	2	?	-0.9%	?	-7%	-1.4
CC(C)(C)c1ccc(/C=C/C(=O)Nc2nncs2)cc1	-12	-11	8	7.3%	8	-7%	-1.0
O=C(Nc1cccc(C(F)(F)F)c1)c1n[nH]c(Cn2cncn2)n1	-8	nt	5	-1.1%[38.3 µM]	3	8%	-1.8
CCNc1nc2c(c(=O)n(C)c(=O)n2C)n1Cc1ccc(Cl)cc1	-8	-3	-1	2.1%	-4	-4%	-2.6
O=C(NCCCCc1ccccc1)C1CC(c2cccc([N+](=O)[O-])c2)=NO1 (stereo unspecified)	-4	-3	2	-0.5%	-10	?	-0.4
CNS(=O)(=O)c1cc(NC(=O)CCCNC(=O)c2ccc(Cl)cc2)ccc1C	-16	0	4	0.7%	3	16%	-1.8
C=CCn1c(SCC(=O)NC2CCCC2)nc2ccccc21	-5	nt	4	0.1%	-1	nt	0.0
Cc1cc(=O)[nH]c(SCC2COC3(CCCCC3)O2)n1 (stereo unspecified)	-4	-23	7	3.3%	2	-1%	-2.4
O=C(Nc1cc(C(F)(F)F)ccc1Cl)c1cc2nc3c(c(C(F)(F)F)n2n1)CCCC3	26	6	6	1.9%	5	0%	2.0
COc1ccc(S(=O)(=O)N2CCC(C(=O)NCc3ccco3)CC2)cc1C	-5	3	-11	-0.3%	-6	8%	0.2
Cc1cc(C)nc(N(C#N)Cc2ccc(Br)cc2)n1	5	-10	9	-1.9%[38.3 µM]	9	1%	1.0
CCCNS(=O)(=O)c1ccc(CCC(=O)N2CCOCC2)cc1	-10	0	12	-2.0%	-1	19%	-1.3
COc1ccc(CCNC(=O)C(C)n2nc(C)n3c(cc4occc43)c2=O)cc1OC (stereo unspecified)	0	0	5	-0.9%	4	11%	3.1
Cc1ccccc1-c1csc(C(C)(O)c2ccc(F)c(F)c2)n1 (stereo unspecified)	-8	nt	19	11%	7	nt	-3.3
Cc1cccc(NC(=S)N/C(=N/S(=O)(=O)c2ccccc2)c2ccccc2)c1	-5&-19	-8	-3&-6	-1.3%&-1.5%	-7&-3	?	-0.1&-4.0
CC1/C(=N/O)CC(c2ccccc2)N(C)C1c1ccccc1 (stereo unspecified)	-6	-12	-2	0.3%[38.3 µM]	3	10%	-0.2
CN1C(=O)/C(=C/c2ccccc2OCc2ccc(F)cc2)N(C)C1=S	13	2	9	?	6	-2%	4.0
O=C(/C=C/c1cccnc1)c1ccc(F)c(F)c1	-10	5	-1	19%	6	63µM*	-4.4
Cc1ccc(CNC(=O)c2oc3ccc(S(=O)(=O)N4CCC5(CC4)OCCO5)cc3c2C)cc1	17	6	25	-1.1%	5	5%	1.9
CCn1c(SCC(=O)N(C)CC(=O)Nc2ccc(OC)cc2)nnc1-c1ccco1	-7	0	-1	-0.7%	1	nt	3.3
COC(=O)c1ccc(CN2CCN(C3CCCCC3)C(CCO)C2)cc1 (stereo unspecified)	-13	4	4	0.0%	10	12%	-2.9
Cc1c(CN2CCCCC2C)c(=O)n(-c2ccccc2)n1C (stereo unspecified)	-12	4	-4	-4.3%[38.3 µM]	1	1%	0.0
CCCCCc1c(-c2ccc(OC)cc2)ncn1CCc1ccccc1OC	nt	nt	-1	-1.3%	-19	nt	nt
CCOC(=O)N1CCC(N(CCCOC)C(=O)Nc2ccc(CC)cc2)CC1	-6	2	14	1.9%[38.3 µM]	3	12%	-1.8
N#C/C(=C(/O)COc1ccc(Cl)cc1)c1nc2ccccc2s1	-4	10	nt	?	0	12%	-1.1
Nn1cnc2cc3ccccc3cc2c1=O	-2	11	4	0.7%	-13	19%	-1.7
O=C(Nc1ccccc1-c1nnc(SCc2ccc(Cl)cc2Cl)o1)c1ccccc1	-12	6	2	5.0%	9	9%	-1.4
CCc1nn(C)c2c(=O)c(=O)c2n(C)[nH]1	-9	8	0	1.1%	-11	12%	-3.2
CC(NC(=O)c1cccs1)C(c1cccs1)N1CCOCC1 (stereo unspecified)	1	-6	-4	-6.2%[38.3 µM]	-3	13%	1.9
O=C(O)CCCCCN1C(=O)CSC1=S	?	1	-4	7.2%	6	-17%	7.3
CCn1c(C)c(C(C)=O)c(N2CCN(c3ccccc3)CC2)nc1=S	-29	-21	-5	-1.9%	-10	56µM*	-1.0
Cc1c(Cl)ccc2c(C(=O)NCCCn3nccc3C)cc(-c3ccccn3)nc12	1	9	-2	23%	-1	2%	-0.2
Cc1ccc(CNC(=O)C2CCC(=O)N(C3CC3)C2)cc1 (stereo unspecified)	-10	8	-6	0.3%	2	5%	1.4
COc1ccccc1-c1noc(COC(=O)c2ccc(Br)o2)n1	1	-3	-1	-1.2%	-3	nt	-2.8
Cc1ccccc1Nc1nc(N)nc(CCl)n1	-6	10	0	-2.5%	3	15%	-1.9
CCCN(CCC)CCNC(=O)c1cc2c(-c3ccccc3F)nn(C)c2s1	?	-1	-10	5.2%&1.6%	13	5%	67*
Cc1ccc(NC(=S)N=Nc2c(O)[nH]c3ccccc23)cc1	-17	-11	-15	4.7%	-10	2%	-6.1
COc1ccc(S(=O)(=O)Nc2ccccc2)cc1	-9	nt	14	3.5%	11	nt	-3.5
CCOc1cc(N2CCOCC2)c(OCC)cc1NC(=O)CN1C(=O)N(C)C2(CCCCC2)C1=O	-4	-4	-11	-0.4%	-4	nt	4.9
O=C(CCN1CCOCC1)NNC(=O)c1ccc(Cl)c([N+](=O)[O-])c1	-2	nt	-2	1.8%	0	nt	-3.4
Cc1cc(C(=O)N/N=C/c2sccc2C)no1	-8	3	-13	-2.2%	-20	1%	-9.1
COc1ccc(CC(=O)N[C@@H]2c3ccccc3CC[C@@H]2OCc2ccccc2)cc1	nt	nt	3	6.5%	5	nt	-0.8
COCCNC(=O)CCCn1c(=O)c2cc(OC)c(OC)cc2n(CC(=O)Nc2ccccc2OC)c1=O	3	-3	nt	-0.8%	-5	-14%	1.6
O=C(COC(=O)CCCOc1ccc(Cl)cc1Cl)NCc1ccc(F)cc1	-4	-13	7	-0.7%	-1	3%	-4.2
CC(CNC(=O)CCn1c(=O)c2cccn2c2ccc(F)cc21)c1ccccc1 (stereo unspecified)	-4	3	-1	-0.5%&3.6%	-1	13%	-0.4
O=C(CSc1nnc(-c2ccc3c(c2)OCO3)o1)Nc1ncc(Cl)cc1Cl	-7	-2	nt	7.7%	-4	3%	-2.5
CC(Oc1ccccc1)C(=O)NNC(=O)c1cccs1 (stereo unspecified)	-3	14	7	-0.9%	4	-4%	2.0
CC(C)OCc1ccc(C(=O)N2CCN(S(=O)(=O)c3ccc(Br)s3)CC2)cc1	1	-3	0	1.8%	14	nt	3.4
COc1ccc(C)cc1NC(=O)C1CCCN(S(=O)(=O)c2cccnc2)C1 (stereo unspecified)	-13	16	nt	-1.8%	5	13%	-3.0
Cc1ccc(NC(=O)c2sc3ccccc3c2Cl)nc1	1	-5	2	3.4%[38.3 µM]	4	3%	0.0
O=S(=O)(NC1CCCCCCC1)c1ccc(F)cc1	-5	nt	5	3.0%	13	nt	-3.1
CCCS(=O)(=O)N1CCCC(C(=O)NC(C)c2ccc3c(c2)OCCO3)C1 (stereo unspecified)	-7	8	3	2.3%	0	11%	-4.1
CC1C(=O)N2CCCc3cc(S(=O)(=O)N4CCN(c5ccc(F)cc5)CC4)cc1c32 (stereo unspecified)	-5	6	7	1.1%	1	-1%	1.2
CCc1ccccc1NC(=O)C1CCN(C(=O)N2CCOc3ccccc32)CC1	-9	-13	7	1.5%	12	19%	-7.6
COc1ccc(NC(=O)CSc2nnc(C3CCCCC3)n2N)c(OC)c1	-7	-1	6	-0.5%	1	17%	2.0
Clc1ccccc1OCCCn1ccnc1	-4	2	3	-0.2%	-3	-6%	-5.6
CCOc1ccc(C(C)NC(=O)Nc2ccc(F)cc2F)cc1 (stereo unspecified)	-8	-18	9	-0.1%	4	12%	-1.0
(further entries)
SMILES	D2 potentiator	TRPV1 potentiator	CtBP-E1A inh	PINK1 expr mod	Six1-Eya2 blk	Sfp inh	D2 agonist
O=C(N/N=C/c1ccccc1O)C1(O)c2ccccc2-c2ccccc21	-1	-12	?	0.8%	?	2%	-3.2
O=C(NCc1ccc2c(c1)OCO2)c1ccc(CS(=O)(=O)c2ccc(Br)cc2)o1	0	1	0	0.5%	-7	?	4.1
Cc1sc2ncnc(OCC(=O)NC(C)C(C)C)c2c1C (stereo unspecified)	-5	-2	2	2.8%	-5	16%	-1.6
CN(c1ccccc1)S(=O)(=O)c1ccc(C(=O)OCC(=O)N2CCOCC2)cc1	-15	10	10	-0.3%	0	-3%	-1.2
COc1ccc(NC(C)=O)cc1S(=O)(=O)Nc1ccc(OCc2ccccc2)cc1	0	1	-3	-2.0%	-4	-12%	5.2
COCCN1C[C@@H](CO)O[C@@H](n2cnc3c(NC4CCCC4)ncnc32)C1	-2	nt	-6	1.0%	-15	nt	-3.5
O=C1N(Cc2ccc3c(c2)OCO3)c2ccccc2C1(O)c1c[nH]c2ccccc12 (stereo unspecified)	-7	9	-2	1.7%	-6	13%	-0.6
O=C(CN(C(=O)c1csnn1)c1ccc(F)c(Cl)c1)NCc1ccc(F)cc1	-9	1	15	0.9%	-3	-1%	-3.0
Cc1cccc(C(=O)NNC(=O)c2ccc(NC(=O)C(C)(C)C)cc2)c1	-36	-9	nt	0.9%	-15	26%	11

Laid out differently: 4 of the compounds above
SMILES | D2 potentiator | TRPV1 potentiator | CtBP-E1A inh | PINK1 expr mod | Six1-Eya2 blk | Sfp inh | D2 agonist
O=C(N/N=C/c1ccccc1O)C1(O)c2ccccc2-c2ccccc21 | -1 | -12 | ? | 0.8% | ? | 2% | -3.2
O=C(NCc1ccc2c(c1)OCO2)c1ccc(CS(=O)(=O)c2ccc(Br)cc2)o1 | 0 | 1 | 0 | 0.5% | -7 | ? | 4.1
Cc1sc2ncnc(OCC(=O)NC(C)C(C)C)c2c1C (stereo unspecified) | -5 | -2 | 2 | 2.8% | -5 | 16% | -1.6
CN(c1ccccc1)S(=O)(=O)c1ccc(C(=O)OCC(=O)N2CCOCC2)cc1 | -15 | 10 | 10 | -0.3% | 0 | -3% | -1.2

Not a hit list; about 3.7% have a hit in one of these screens.
